TRPML1 ag: human mucolipin-1 channel agonism | Q9GZU1 | TRPML1-expressing cells, Ca2+ dye fluorescence, FDSS; host cell line not named in the record; reference of the full effect not given here | activation, % (test concentration not listed) | 0.12% of 410,000 active; in the data active = activation above about 50%; inconclusive = about 30% to 50%; inactive = below about 30%; note: 0% is about no effect; the text of the record puts the active cut at 80%
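In this qHTS format, compounds were pin-transferred onto Ca8-dye-loaded TRPML1-DL cells induced with Tet overnight, and intracellular Ca2+ fluorescence was recorded kinetically for 110 s after a 10 s baseline. A subsequent 4uM final 54-4 (EC80) addition followed by a second 110 s read served as the antagonist phase.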
Six1-Eya2 blk: blocks human Six1 binding to Eya2; activity change, % (no concentration beside the values); Q15475+O00167; 0.56% of 360,000 active; AlphaScreen GST-Six1/His-Eya2 binding, biochemical; stronger effect = lower value; control for the full effect not named in the record; in the data active = activity change below about -65%; inconclusive = about -30% to -65%; inactive = above about -30%; note: % is set by controls: 0 for no effect and ±100 for the full control effect; compound concentration not given in the record
Target sequence (O00167 whole entry, looked up): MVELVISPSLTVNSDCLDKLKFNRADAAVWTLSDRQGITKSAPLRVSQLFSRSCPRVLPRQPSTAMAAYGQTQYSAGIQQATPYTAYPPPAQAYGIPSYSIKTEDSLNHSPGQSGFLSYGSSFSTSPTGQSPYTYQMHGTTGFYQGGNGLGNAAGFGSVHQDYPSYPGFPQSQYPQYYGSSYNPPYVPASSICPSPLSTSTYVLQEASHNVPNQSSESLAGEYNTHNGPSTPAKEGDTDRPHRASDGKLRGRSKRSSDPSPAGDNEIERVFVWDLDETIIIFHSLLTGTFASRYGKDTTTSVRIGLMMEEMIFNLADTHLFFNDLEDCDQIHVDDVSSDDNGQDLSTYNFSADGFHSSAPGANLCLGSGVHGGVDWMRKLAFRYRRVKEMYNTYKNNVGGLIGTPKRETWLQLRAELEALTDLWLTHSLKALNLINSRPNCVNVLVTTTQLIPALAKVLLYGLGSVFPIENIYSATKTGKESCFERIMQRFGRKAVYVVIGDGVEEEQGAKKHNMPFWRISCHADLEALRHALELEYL
Target sequence (Q15475 whole entry, looked up): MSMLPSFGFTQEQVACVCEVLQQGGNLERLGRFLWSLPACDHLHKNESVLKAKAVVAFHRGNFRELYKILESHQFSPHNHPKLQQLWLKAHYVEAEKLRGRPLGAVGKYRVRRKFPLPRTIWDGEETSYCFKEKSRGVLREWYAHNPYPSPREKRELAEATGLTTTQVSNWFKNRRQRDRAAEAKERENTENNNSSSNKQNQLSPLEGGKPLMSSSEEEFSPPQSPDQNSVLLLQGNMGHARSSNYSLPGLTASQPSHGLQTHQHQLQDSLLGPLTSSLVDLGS
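GST-Six1 + His-Eya2 (5X stock: 250/500 nM); Tris pH 8.0, 300 mM NaCl, 0.05% BSA, 0.02% Tween 20; GSH donor/Ni acceptor beads; 1 h 37 °C dark; AlphaScreen readout.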
D2 ag: human D2 receptor agonism in beta-arrestin assay | P14416 | DiscoveRx PathHunter D2 beta-arrestin, luminescence, 90 min; 100% = 57 uM dopamine signal | activation, % (no concentration beside the values) | 0.084% of 360,000 active | AID 624465; in the data active = activation above about 40%; inconclusive = about 15% to 40%; inactive = below about 15%; note: compound concentration not given in the record; the text of the record calls up to 30% inactive
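DiscoveRx PathHunter D2 beta-arrestin cells (2,100/well) attached overnight, then compound-stimulated 90 min at 37 C in HBSS/10 mM HEPES/0.1% Tween-20 buffer; beta-galactosidase complementation read by luminescence after 1 h at ambient temperature. Dopamine 57 uM final (EC100) as control.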
PINK1 modulator: PINK1 expression modulation; PINK1 immunofluorescence, high-content cytometry, 24 h; Potency, µM (doses to about 76.6 µM), for inactives: top-dose activation (PINK1 increase), most hits filed as activators; 0.2% of 410,000 active; active = well fitted activation curve with a large enough effect; inconclusive = small, poorly fitted or top-dose-only effect; inactive = flat fitted curve, though single readings scatter; cell line not stated here;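 note: potency is the fitted concentration of half-maximal effect; % of control where 0% means no effect; nearly all actives have a fitted effect of over 65% in size; a mitochondrial uncoupler was the plate control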
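A stable cell line was treated with compounds at 5 concentrations for 24 hours, with CCCP as control. PINK1 levels and mitochondrial localization were measured by immunofluorescence with mitochondrial, cell and nuclear markers after fixation, read by laser-scanning cytometry.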
CtBP-E1A inh: inhibitors of CtBP/E1A interaction; AlphaScreen GST-E1A/His-CtBP binding, 1536-well; stronger effect = lower value; control for the full effect not named in the record; activity change, % (no concentration beside the values); 0.49% of 340,000 active; in the data active means activity change below about -65%; inconclusive means about -30% to -65%; inactive means above about -30%; note: % is set by controls: 0 for no effect and ±100 for the full control effect; compound concentration not given in the record
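GST-E1A and His-tagged CtBP (125 nM each as 5X stock) were preincubated with pin-transferred compound for 2 h at 37 °C in the dark, then glutathione donor and nickel acceptor beads were added for 1 h before AlphaScreen reading.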
TRPML1 inh: inhibitors of human TRPML1 channel; activity change, negative = inhibition, % (test concentration not listed); 0.02% of 390,000 active; TRPML1-inducible cells, Ca2+ dye fluorescence, FDSS; stronger effect = lower value; inhibition of EC80 agonist-evoked calcium signal; in the data active means activity change below about -50%; inconclusive means about -30% to -50%; inactive means above about -30%;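 note: stimulus is agonist 54-4 at its EC80 concentration; % is set by controls: 0 for no effect and ±100 for the full control effect; compound concentration not given in the record; the text of the record puts the active cut at -80%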
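TRPML1-DL cells, Tet-induced overnight (~16 h, 37 °C) at 1,500 cells/well, were loaded with Ca8 no-wash dye plus quencher for 45-90 min at room temperature. Compounds were pinned during FDSS kinetic reading; agonist 54-4 at EC80 (4 uM final) then added.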
Active calls of the source: *; u = inconclusive; x = no result given; & = joins results of further samples; [ ] = remark or other dose. No enrichment for hits; about 1% have a hit in one of these screens.

SMILES	TRPML1 ag	Six1-Eya2 blk	D2 ag	PINK1 modulator	CtBP-E1A inh	TRPML1 inh
CC(C)NC(=O)CN1CCN(C(c2cc3ccccc3o2)c2nnnn2C(C)(C)C)CC1 (stereo unspecified)	-0.7	3	x	0.8%	3	x
C[C@H]1CN([C@@H](C)CO)C(=O)Cc2cc(NC(=O)Nc3ccccc3)ccc2O[C@H]1CN(C)Cc1ccccc1	1.4	-9	-0.4	-0.3%	-6	-14
c1cnn(-c2cncc(-n3cccn3)n2)c1	-0.3	5	-5.7	0.8%	-4	-6
COc1cccc(-n2nnnc2SCC(=O)NC2CCCC2)c1	-0.4	5	0.3	-2.7%	-2	-5
Cc1cc(C)n(-c2nc3cc(Cl)ccc3nc2N2CCN(c3ccccc3F)CC2)n1	-1.1	x	x	4.6%	x	3
Cc1cccc2cc(/C=C3\N=C(c4ccccc4)OC3=O)c(N3CCOCC3)nc12	-0.3	-2	-4.1	3.8%	1	1
O=C1/C(=C/c2ccccc2)CCC1C1CCCC1 (stereo unspecified)	0.6	13	0.0	3.5%	-14	5
Cc1cc(C)n(-c2nnc(C)n2/N=C/c2ccccc2OCc2ccccc2Cl)n1	0.1	3	-2.5	2.2%	5	12
O=C(NCc1ccncc1)c1ccc(Cl)c(S(=O)(=O)N2CCOCC2)c1	-0.2	5	0.1	-0.9%	1	1
COc1ccc([C@@H]2[C@@H]3C(=O)N(C(C)(C)C)C(=O)[C@@H]3[C@]3(Cc4ccc(Cl)cc4)C(=O)N(c4ccc(OC)cc4)C(=O)N23)cc1	-0.3	0	-2.8	2.5%	-5	-12
COc1ccc(C(=O)NNc2ncnc3c2cnn3-c2cccc(Cl)c2)cc1OC	0.4	x	x	-1.3%	x	-1
CN(C)C(=O)OCC1COc2ccccc2O1 (stereo unspecified)	1.9	9	-2.4	0.7%	11	20
Cc1ccc(CNC(=O)C(C)OC(=O)c2cccs2)cc1 (stereo unspecified)	-0.4	6	-1.2	0.1%	6	-4
COc1ccc(-n2c(=O)c3ccccc3n(CC(=O)NC3CCCCC3)c2=O)cc1OC	0.3	3	-2.8	2.3%	0	-13
COC(=O)[C@@H]1C[C@H]2CC[C@H](O)C[C@H]2N1Cc1ccc(-c2ccccc2)cc1	5.3	-1	-2.8	-0.3%	-9	-5
CCOc1ncccc1C(=O)NNC(=O)c1cccc(S(=O)(=O)N2CCOCC2)c1	-1.0	-2	-4.5	1.7%	x	-9
Cc1cc(N/N=C/c2ccc(F)cc2)nc(-n2nc(C)cc2C)n1	1.3	-3	-7.7	6.0%	-3	20
O=C(Nc1ccc(-c2n[nH]c(=S)o2)cc1)c1ccccc1Br	-0.9	-8	8.6	0.5%	x	9
COc1cc(OC)c(NC(=O)Nc2c(C)n(C)n(-c3ccccc3)c2=O)cc1Cl	-0.9	x	x	-1.0%	x	-9
O=C(NCc1ccco1)C1CCN(S(=O)(=O)Cc2ccccc2)CC1	0.3	2	-2.1	-1.3%[38.3 µM]	7	-4
CNC(=O)c1ccccc1-c1ccccc1	-0.6	1	-1.9	-0.3%	9	-4
CCOc1ccccc1NC(=O)Nn1cnnc1	0.8	4	3.3	-1.0%	-1	17
COc1ccc2sc(-c3ccccc3OC)c(C#CC(C)(C)O)c2c1	1.6	1	-1.1	1.8%	3	27
CC(C)c1nc(SCC(=O)N2CCCc3ccccc32)c2c(=O)n(C)c(=O)n(C)c2n1	0.7	-1	3.2	0.7%	-8	49
CCCn1nnnc1NC(=O)c1cc(Br)ccc1OC	0.2	2	-2.9	0.8%	0	-3
CC(=O)C(Cc1ccccc1)NC(=O)CN1CCc2ccccc2C1 (stereo unspecified)	-0.3	0	-1.7	-1.3%	1	-15
O=C(Nc1cc(S(=O)(=O)Nc2ccc(Cl)cc2)ccc1N1CCCCC1)c1ccc(F)cc1Cl	0.4	-6	0.4	u	1	5
CC(C)COC(=O)N(C)C[C@@H]1OCc2cn(nn2)CCCC(=O)N([C@@H](C)CO)C[C@H]1C	x	1	-1.8	0.7%	0	x
CC(/C=N/NC(=O)c1ccc(Cn2cc([N+](=O)[O-])cn2)o1)=C\c1ccccc1	1.8	-3	-2.1	0.4%	-3	2
Cn1cccc1/C=N/NC(=O)Cc1cccs1	0.0	-10	-1.1	-1.4%	-7	2
Cn1c2ccccc2c(=O)c2cc(C#Cc3ccccn3)ccc21	2.7	5	-1.7	1.3%	0	3
Cc1ccc(C)c(N(CC(=O)NC2CCCCC2)C(=O)c2csnn2)c1	1.5	4	-2.7	1.5%	9	40
CCn1c(C(=O)NCc2ccccc2OC)cc2sccc21	0.2	x	x	0.7%	x	31
CC(C)CN(C(=O)CN1CCN(S(=O)(=O)c2ccccc2)CC1)c1c(N)n(CC(C)C)c(=O)[nH]c1=O	-0.5	10	0.3	-4.7%	7	-2
CS(=O)(=O)N1CCN(C(=O)c2cc(-c3ccncc3)nc3ccc(Cl)cc23)CC1	0.9	1	-1.1	2.4%	5	-1
CC(C)c1onc(C(=O)N2CCCCC2C)c1[N+](=O)[O-] (stereo unspecified)	-1.2	7	-6.4	1.3%	8	3
COc1ccccc1C(=O)Nc1c(C(=O)N2CCN(c3ccc(F)cc3)CC2)oc2ccccc12	0.0	x	x	1.2%	x	3
NC(=O)c1ccccc1Br	-0.2&0.2	-1	-1.5	0.5%	x	-7&23
Cc1ccc(S(=O)(=O)N(Cc2ccccc2)c2ccccc2C(=O)NCc2ccco2)cc1	1.6	-16	-3.7	-1.7%[38.3 µM]	81	55
O=C(CSc1nc(=O)[nH]c2c1CCC2)Nc1cc(C(F)(F)F)ccc1Cl	-0.7	x	x	-0.9%	x	13
Cc1[nH]c2ccc(F)cc2c(=O)c1SC(F)(F)C(F)C(F)(F)F (stereo unspecified)	-1.0	0	1.3	9.1%	1	6
C#CCOCCOCCOCCNc1nc(N2CCOCC2)nc(N2CCN(C(=O)[C@H]([C@@H](C)CC)n3cc([C@@H](N)CC(C)C)nn3)CC2)n1	-0.9	0	0.6	1.5%	-4	-7
Cc1ccc(-n2c3c(cc(C(=O)N4CCN(C)CC4)c2=O)C(=O)CC(C)(C)C3)cc1	0.5	2	0.5	-1.7%	8	-6
CCOc1ccc(N2CC(C)Cn3c2nc2c3c(=O)n(CC(=O)O)c(=O)n2C)cc1 (stereo unspecified)	-0.3	x	x	0.7%	x	-17
CC(C(=O)OCC(=O)c1c(N)n(C)c(=O)n(C)c1=O)N1C(=O)c2ccccc2C1=O (stereo unspecified)	-0.6	7	-5.1	0.5%	2	-3
Cc1cc(C(=O)CSc2nnc(N)s2)c(C)n1C1CC1	1.5	-11	-0.4	3.8%	-1	4
Cc1ccccc1Nc1c(-c2ccc(N3CCOCC3)cc2)nc2ccc(Br)cn12	0.8	x	x	15%	x	31
CNC(=S)N(Cc1ccc2c(c1)OCO2)C1CC(=O)N(c2ccccc2)C1=O (stereo unspecified)	2.0	4	-1.3	16%	9	33
CCN(CC)CCN1C(=O)C(O)=C(C(=O)c2cc3cccc(OC)c3o2)C1c1cccs1 (stereo unspecified)	0.5	0	1.2	-0.9%	-1	-21
COc1ccc(N(Cc2ccccc2)S(=O)(=O)c2cccc(C(=O)NC3=NCCS3)c2)cc1	2.4	-3	-0.3	0.8%	0	2
COCCOC1CCN(C(=O)C2CCC(=O)N(CCc3ccc(OC)cc3)C2)CC1 (stereo unspecified)	-1.2	-3	-1.1	-0.7%	-3	78
CCCc1cc2c(=O)c(-c3ccc4c(c3)OCCO4)c(C)oc2cc1OS(C)(=O)=O	0.3	-9	-1.0	9.7%[38.3 µM]	-7	-7
Cc1cc(C)nc(N2CCCC(C(=O)Nc3cccc(Cl)c3)C2)n1 (stereo unspecified)	1.1	5	-2.0	5.6%	2	-7
COc1ccc(C(C)=O)c2c(O)cccc12	1.6	7	8.7	-0.2%	-2	4
COc1nc(NCc2ccco2)nc(NC2CCCCC2)n1	2.5	-6	-0.1	1.1%	-2	3
CCN(CC)C(=O)Oc1ccc(Br)cc1C(=O)Nc1ccc(F)cc1F	0.9	1	-5.9	-1.8%	-29	12
Clc1cc2nc3ccccn3c2cc1Cl	1.0	8	0.4	0.5%	-3	-2
NC(=O)c1ccc(NC(=O)COC(=O)c2ccc(Br)o2)cc1	-0.1	-1	-2.2	-0.8%	-3	0
CN(C)S(=O)(=O)Oc1ccsc1C(=O)Nc1ccc(Cl)cc1	1.5	31	-4.5	-1.7%	12	13
CCn1c(=O)c2sccc2n2c(CCCC(=O)Nc3ccc(Oc4ccccc4)cc3)nnc12	0.4	x	x	2.5%	x	-1
Next section:
SMILES	TRPML1 ag	Six1-Eya2 blk	D2 ag	PINK1 modulator	CtBP-E1A inh	TRPML1 inh
O=C(CSc1cn(Cc2cccc(F)c2)c2ccccc12)NCc1ccc(F)cc1	2.3	-3	-1.2	15%	7	27
Cc1cccc(C(=O)NCCN(C)C)c1	-0.8	8	-2.7	0.5%	5	1
C=CC[C@H](CC(=O)N(CCO)Cc1ccccc1)C(=O)NC[C@H](OC(=O)[C@@H](CC=C)Cc1ccc(F)cc1)c1ccccc1	0.0	-2	-14	-0.6%	2	5
O=C(Cc1ccc(F)cc1)Nc1nnc2n1CCS2	-0.1	x	x	-3.6%	x	55
O=C(NCC1CC1)c1ccccc1Cl	1.1	4	-12	-2.8%	-2	18
CCn1c(=O)c(C(=O)NNS(=O)(=O)c2ccc(NC(=O)OC)cc2)c(O)c2ccccc21	-0.4	1	-2.9	3.8%	-11	8
O=C(COC(=O)c1cccc(Cl)c1Cl)NCc1cccs1	0.8	4	0.5	-0.1%	7	-10
CCCCCC(=O)NNC(=O)Nc1ccccc1	0.1	3	-5.2	1.1%	-9	38

Screening data (PubChem)
